Screening results: PubChem BioAssay, several laboratories
PABP polyA inh: PABP-poly(A) binding inhibition; inhibition, % at 35 µM; P11940; PABP-poly(A) RNA binding, fluorescence polarization; AID 2014; actives 1% (n = 290,000);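 active = 50% or more with normal probe brightness, or confirmed in later tests; inconclusive = above 50% with abnormal brightness, or retests that disagree; inactive = below 50% or failed in later tests; about a fifth of its hits are not listed in these tables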;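 also: calls also rest on retests at 20 µM and on dose response follow-up; controls were probe without protein and protein plus probe with vehicle; some compounds called inactive have numbers as strong as hits; many hits fall short of the cut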
MT1-MMP act inh: MT1-MMP (human) activation inhibition; P50281; HT1080 RFP-PRO-GFP cells, GFP/RFP ratio fluorescence, overnight; percent of plate control window, DMSO zero; GFP/RFP ratio change, % at 20 µM; actives 0.061% (n = 360,000);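 active = GFP/RFP ratio change of at least 30% with cell ATP level not reduced by more than half and red fluorescence within 50% of control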; also: strong numbers were not always called active
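Assay system: HT1080 RFP-PRO-GFP cells | Dosing: 20 µM single dose, 1% DMSO | Incubation: Cells overnight before dosing, compound overnight, 37 °C, 5% CO2 | Evaluation: GFP/RFP fluorescence ratio | Control set: DMSO-only wells and HT1080 RFP-L50D-GFP cell wells as references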
CSC inhib: cancer stem cell inhibition; cancer stem cell-like cells viability, luminescence; inhibition, % at 7.5 µM; actives 1.1% (n = 300,000); AID 2717;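 active = mean at 75% or more and at least half the replicates too; inconclusive = mean and replicates disagree; tested in HMLE shEcad cells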;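 also: 0% = median of negative and 100% = median of positive control wells; the first replicate is given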
Rce1 inh: yeast Ras-converting enzyme inhibition. AID 2563. actives 0.27% (n = 290,000). Q03530. yeast membranes, quenched prenylated peptide cleavage fluorescence. calls only;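 active = fall in fluorescence gain of 50% or more versus controls, with final raw signal at or below 3038400; inconclusive = same 50% fall but final raw signal above 3038400; inactive = fall in fluorescence gain under 50%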;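 also: plate controls were neutral control wells for no effect and wells lacking membranes for full effect; tested at 10 µM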
Target sequence (Q03530 whole entry, looked up): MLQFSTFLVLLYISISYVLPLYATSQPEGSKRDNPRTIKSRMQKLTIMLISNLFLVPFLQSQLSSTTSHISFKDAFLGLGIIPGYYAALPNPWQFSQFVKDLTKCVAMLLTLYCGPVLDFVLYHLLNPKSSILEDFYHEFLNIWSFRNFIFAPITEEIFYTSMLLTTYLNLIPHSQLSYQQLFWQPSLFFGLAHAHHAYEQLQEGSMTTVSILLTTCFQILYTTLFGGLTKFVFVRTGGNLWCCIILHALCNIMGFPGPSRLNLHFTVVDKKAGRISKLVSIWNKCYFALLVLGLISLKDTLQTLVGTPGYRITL
UUG fidelity: yeast start codon fidelity modulation; activity score, % at 18.7 µM; S. cerevisiae UUG-firefly luciferase reporter, luminescence/redox ratio; actives 0.13% (n = 350,000);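 active = replicate mean at a twofold rise or more, about +100% in these data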;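 also: firefly luciferase made from a UUG start codon reports start codon fidelity; reporter light over untreated wells divided by growth signal over untreated wells; some hits fall short of that in this replicate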
Env fusion inh: inhibitors of HIV Env-mediated cell fusion; inhibition, % at 12.3 µM; AID 651610; HeLa-JRFL Env/CEM21 cell fusion, luciferase; actives 1.1% (n = 360,000);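 active = mean replicate inhibition score of at least 50 and every replicate individually at or above 50; inconclusive = only one of the two criteria met; inactive = mean below 50 and not all replicates reaching 50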;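 also: 0% = plate neutral controls and 100% = maraviroc near 300 nM; one replicate is shown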
eIF4H inh: inhibitors of RNA binding by human eIF4H. Q15056. inhibition, % at 35 µM. actives 0.94% (n = 290,000). eIF4H fluorescence polarization binding assay;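 active = 50% or more with normal probe brightness, or confirmed in later tests; inconclusive = above 50% with abnormal brightness, or retests that disagree; inactive = below 50% or failed in later tests; about a fifth of its hits are not listed in these tables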;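 also: calls also rest on retests at 20 µM and on dose response follow-up; 0% = protein and probe with vehicle and 100% = probe without protein; strong numbers were not always called active; many hits fall short of the cut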
PABP polyA inh retest: recorded beside PABP polyA inh, whose call it bears; inhibition, %; compound at 20 µM; confirmation repeats;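 mean of two retest wells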
MT1-MMP act inh RFP: also measured in MT1-MMP act inh; calls as there; RFP signal change, %; measured here: RFP expression control read;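 0 = vehicle wells; hits needed this value within 50% of zero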
Active calls of the source: *; i = inactive; ? = inconclusive; · = not tested or not shown; & = joins results of further samples. Some of the compounds tested; rates above refer to the full screens.

SMILES | PABP polyA inh | MT1-MMP act inh | MT1-MMP act inh RFP | CSC inhib | Rce1 inh | UUG fidelity | Env fusion inh | eIF4H inh | others
CCC(C)NC(=O)c1oc2ccc(S(=O)(=O)N3CCC4(CC3)OCCO4)cc2c1C (centres undefined) | -12 | 5 | -2 | 5 | i | 12 | 15 | -9
Cc1[nH]c2ccccc2c1Cc1nnc(SCc2ccccc2)o1 | -10 | 1 | -4 | -3 | i | 1 | 5 | 4
COc1ccccc1OCCCN1C(=O)C(=O)c2cccc(C)c21 | 14 | -1 | 5 | 12 | i | -24 | -287 | 16
COc1ccc(CCNC(=O)C(=O)NCC2OCCN2S(=O)(=O)c2ccc(Cl)cc2)cc1 (centres undefined) | 2 | 3 | -16 | -8 | i | -13 | · | -4
CCCCNC(=O)c1ccc2c(c1)ncn2C1CCCC1 | -2 | -2 | 1 | -17 | i | -17 | -15 | -8
COc1ccccc1CNC(=O)C1CCN(S(=O)(=O)c2cccc([N+](=O)[O-])c2)CC1 | 7 | -3 | -5 | -15 | i | -6 | 8 | 4
CN1CCN(C(=O)/C=C\c2ccc(Cl)cc2)CC1 | -3 | -1 | 3 | 9 | i | · | 19 | 4
Cc1cnc(CNC(=O)C2CCC(=O)N(Cc3ccc(Cl)cc3)C2)[nH]1 (centres undefined) | -1 | -7 | -2 | -2 | i | -18 | -1 | -12
Cc1ccc(N(NC(=O)C(O)(c2ccccc2)c2ccccc2)C(=O)CCl)cc1 | 2 | -22 | -27 | 21 | i | · | 70* | -4
COc1ccccc1NC(=O)c1ccc(S(=O)(=O)N(C)C)cc1 | -8 | -1 | 4 | -8 | i | -4 | 10 | -7
Cc1ccc(C(=O)N2CCC(N3CCC(C(=O)N4CCOCC4)CC3)CC2)cc1C | 11 | 0 | 0 | -9 | i | 5 | · | 6
CC(=O)c1cccc(OCC(O)CNCC2COc3ccccc3O2)c1 (centres undefined) | 11 | -6 | -3 | 1 | i | · | 21 | 4
Fc1ccc(CSc2ccc(-c3ccco3)nn2)cc1 | 68* | 3 | -2 | · | i | -18 | · | ? | PABP polyA inh retest=85*
COC(=NC(C)C)NC(C)C | 10 | · | · | -14 | i | · | 20 | -7
COc1cc2c(cc1NC(=O)CSc1ccc(C)cc1)oc1ccccc12 | 3 | 8 | -2 | -3 | i | · | · | 8
CN1CCN(c2ccc(CNC(=O)C3Cc4c(-c5cccc(F)c5)ccnc4O3)cc2)CC1 (centres undefined) | · | 0 | 1 | · | · | -20 | 11 | ·
Cc1ccc(C(=O)Nc2cccc(C(F)(F)F)c2)cc1Nc1cnccn1 | 2 | 11 | 1 | -13 | i | -17 | 11 | -3
O=C(c1ccco1)N1CCN(C(c2ccc(F)cc2)c2nnnn2Cc2cccs2)CC1 (centres undefined) | 8 | -4 | -4 | 0 | i | 4 | · | -8
Cn1c(=O)c2cc(NC(=S)NC3CC3)ccc2n1Cc1cccc(C(F)(F)F)c1 | · | 3 | -2 | · | · | -36 | 16 | ·
CCC(CC)COC(=O)C1=C(C)NC(=O)NC1c1ccc(N(C)C)cc1 (centres undefined) | -17 | -4 | -2 | -14 | i | -12 | 40 | 5
CC(=O)Nc1ccc(S(=O)(=O)Nc2ccc(Cc3ccncc3)cc2)cc1 | 7 | 2 | -9 | -3 | i | -8 | -4 | -1
CCC(Oc1ccccc1)C(=O)Nc1ccccn1 (centres undefined) | 4 | 2 | 4 | -7 | i | -15 | -29 | -6
CC1CC(C)(C)N(C(=O)CN2CCN(C)CC2)c2ccccc21 (centres undefined) | 30 | -3 | 3 | -3 | i | -15 | 2 | 25
Cc1ccc(C)c(NC(=O)COC(=O)c2ccc(S(=O)(=O)N3CCCC3)cc2)c1 | · | 6 | 2 | · | · | -7 | 2 | ·
Cc1ccc(/C=N/NC(=S)Nc2cccc(S(=O)(=O)N(C)C)c2)o1 | -14 | 3 | -9 | 29 | i | -27 | -1 | 9

Next section; it opens with the 2 that closed the last part.
SMILES | PABP polyA inh | MT1-MMP act inh | MT1-MMP act inh RFP | CSC inhib | Rce1 inh | UUG fidelity | Env fusion inh | eIF4H inh | others
Cc1ccc(C)c(NC(=O)COC(=O)c2ccc(S(=O)(=O)N3CCCC3)cc2)c1 | · | 6 | 2 | · | · | -7 | 2 | ·
Cc1ccc(/C=N/NC(=S)Nc2cccc(S(=O)(=O)N(C)C)c2)o1 | -14 | 3 | -9 | 29 | i | -27 | -1 | 9
CCc1cc(C(=O)N2CCCC(CCC(=O)N3CCN(c4ccccn4)CC3)C2)no1 (centres undefined) | -1 | 1 | -7 | 0 | i | 4 | 13 | 1
Cc1ccc(/C=N/NC(=O)c2cccc(S(=O)(=O)Nc3ccccc3Cl)c2)s1 | -10 | -6 | -1 | 0 | i | -22 | · | -10
Cc1[nH]c2ccccc2c1SCC(=O)O | -10 | -3 | -1 | 0 | i | -22 | · | -7
O=C(NCc1cc([N+](=O)[O-])ccc1O)c1cccc(NS(=O)(=O)c2ccccc2)c1 | 29 | 0 | 5 | 10 | i | -17 | -7 | 4
CCc1ccc(C(=O)CSc2n[nH]c(-c3ccncc3)n2)cc1 | 0 | 1 | -7 | 7 | i | -22 | · | -5
O=C(Oc1ccccc1-c1nnco1)c1ccc(Cl)cc1 | 2 | 4 | 1 | -6 | i | -24 | · | 14
COC(=O)c1ccc(Cl)c(NC(=O)CN(c2ccc(OC)c(OC)c2)S(C)(=O)=O)c1 | 11 | -3 | -5 | -6 | i | · | -25 | 1
CSc1ccccc1NC(=O)c1cc2ncc(Br)cn2n1 | 6 | 2 | -2 | 12 | i | · | -131 | 29
CC(=O)Cn1c(N2CCC(Cc3ccccc3)CC2)nc2c1c(=O)[nH]c(=O)n2C | -7 | 1 | -3 | -1 | i | -6 | · | -10
COc1ccc(CN2CCN(CCCc3ccccc3)C(CCO)C2)c(OC)c1 (centres undefined) | 7 | 3 | 4 | 24 | i | -16 | 21 | 12
CCCNC(=O)c1cc(Cl)c(NC(=O)C2=CSCCO2)cc1OC | 3 | -1 | -3 | -13 | i | -11 | -9 | -5
Fc1cccc(CCN2CCNC[C@H]2Cc2cccc3ccccc23)c1 | · | -2 | 2 | 0 | i | -13 | 23 | ·
O=C(NC1CCCN(Cc2ccc(Cl)cc2)C1)c1cccc(F)c1 (centres undefined) | 6 | -2 | -2 | -10 | i | -25 | 6 | -6
Cc1cccnc1CCNCc1c(C(=O)N2C[C@@H](C)O[C@@H](C)C2)nc2ccc(Cl)cn12 | 4 | -1 | 2 | 8 | i | -11 | -8 | 0
COc1ccc2cc(Br)ccc2c1CC(=O)NC1CC(C)(C)NC(C)(C)C1 | -12 | -7 | -9 | 32 | i | 0 | 16 | -7
Cc1[nH]n(-c2ccccc2)c(=O)c1/C=C1\C=NN=C1c1ccccc1 | 14 | 2 | -4 | -2 | i | · | -12 | -2
CCOC(=O)C1CCN(C(=O)Nc2cccc(Cl)c2)CC1 | 2 | 11 | 0 | -14 | · | -1 | -43 | -5
Cc1cc(C(=O)Nc2ccc(S(=O)(=O)N3CCCC3)cc2)no1 | -2 | 5 | 1 | -10 | i | -4 | -15 | -6
Nc1ccc(S(=O)(=O)NC2(C(F)(F)F)NC(=O)N(c3ccccc3F)C2=O)cc1 (centres undefined) | -6 | 0 | 1 | · | i | -12 | 5 | 4
COc1ccc(NC(=O)CCCc2ccccc2)c(OC)c1 | -6 | 0 | 3 | -16 | i | 21 | 1 | -10
COc1ccccc1N1CCN(C(c2cccs2)C(C)NC(=O)C(=O)N2CCCCC2)CC1 (centres undefined) | -2 | 1 | 2 | 9 | i | -12 | -13 | 3
COc1ccc(NC(=O)NCCCN2CCc3ccccc3C2)cc1 | -7 | -1 | 2 | 13 | i | 1 | -10 | -5
Cc1ccc(NS(=O)(=O)c2c(F)cc(F)c(Cl)c2F)cc1S(=O)(=O)N1CCOCC1 | · | 2 | -2 | -11 | · | · | 8 | ·
O=C(O)c1cccc(Nc2ncnc3ccc(Br)cc23)c1 | 4 | -2 | 0 | -10 | i | · | 1 | 0
CCOc1ccc(NC(=O)COC(=O)c2ncc(Cl)c(Cl)c2Cl)cc1 | 1 | 0 | 3 | -6 | i | · | -2 | 1

(further entries)
SMILES | PABP polyA inh | MT1-MMP act inh | MT1-MMP act inh RFP | CSC inhib | Rce1 inh | UUG fidelity | Env fusion inh | eIF4H inh | others
O=C(COC(=O)CC1CC2CCC1C2)NC(=O)NC1CCCC1 (centres undefined) | -8 | 1 | 4 | 12 | i | · | 7 | -2
COc1ccc(C)cc1Nc1nc(-c2ccccc2O)nc2ccccc12 | 1 | -1 | 1 | 12 | i | -6 | -15 | -7
Cc1ccc(-n2[nH]c(C)c(/C=N/NC(=O)c3cccc([N+](=O)[O-])c3)c2=O)cc1C | -7 | · | · | 104* | i | · | · | 14
O=C(NCCCn1ccnc1)c1cnn2c1NC(c1ccccc1)CC2C(F)(F)F (centres undefined) | 1 | -1 | -1 | -4 | i | -4 | -11 | 1
O=C(NCCc1ccccn1)c1nc(Cn2cc([N+](=O)[O-])cn2)no1 | 1 | 1 | 6 | -5 | · | -19 | -28 | -9
COC(=O)C1=C(C)N(CC2CC2)C(=NCCN2CCOCC2)N[C@H]1c1ccccc1 | 26 | -9 | -1 | -2 | i | -15 | · | -6
CC(C)(C)c1nnc(NC(=O)Nc2ccc(Cl)cc2)s1 | -2 | 7 | -11 | 15 | i | · | 5 | 1
CCN(C(=O)c1ccccc1F)c1nc(-c2ccc(OC)cc2)cs1 | 10 | 0 | -12 | · | i | -9 | -9 | -10
CCN(CC)C(=O)CN1C(=O)c2cccc3cccc1c23 | -2 | -1 | 3 | -13 | i | 2 | 11 | -2
O=C(NCc1ccccc1)c1ccc2ccccc2n1 | 6 | 0 | 3 | 0 | i | · | 17 | -16
COc1ccc(C(=O)N2CCC(C(=O)c3ccc(F)cc3)CC2)cc1 | -3 | -2 | -6 | -9 | · | -8 | -24 | -2
CC(C)(C)n1cnc2cc(NCc3cccs3)ccc21 | -5 | -6 | -1 | -2 | i | -23 | 5 | -14
COc1ccc2c(c1OC)C(=O)OC2C1c2c(cc3c(c2OC)OCO3)CCN1C (centres undefined) | 3&0 | -1&2 | 1&3 | 13&-5&-5 | i | -10&-19&-12 | 11&-85 | -8&-7
C#CCCC(=O)c1ccccc1/C=[N+](\[O-])c1ccccc1 | · | -2 | 6 | -14 | · | -4 | -17 | ·
CC(=O)c1ccccc1NC(=O)COC(=O)c1cc[n+]([O-])cc1 | · | -2 | 2 | -7 | · | -9 | · | ·
O=C(NCc1ccco1)c1ccc(OC2CCN(Cc3ccccn3)CC2)cc1 | · | 1 | 1 | · | · | -14 | 10 | ·
N#Cc1cccc(NC(=S)Nc2ccccc2)c1 | 12 | -2 | 3 | -14 | i | -28 | -8 | -6
CCOc1ccc(NC(=O)C(=O)NCCN2CCN(S(=O)(=O)c3ccccc3)CC2)cc1 | 0 | 0 | -1 | 0 | i | -9 | -7 | -19
CN(Cc1ccccc1)S(=O)(=O)c1ccc(Cl)c(C(=O)NCCCN2CCOCC2)c1 | · | 2 | -4 | 55 | i | -4 | -8 | ·
CCCN(CC(=O)Nc1ccc(F)c(F)c1F)C(=O)c1ccc2c(c1)NC(=O)CS2 | · | 2 | -11 | -26 | · | -4 | 6 | ·
O=C(Nc1ccc(Cl)cc1)N[C@@H]1c2c(ccc3ccccc23)OC[C@@H]1CO | -13 | 6 | -9 | 23 | i | -15 | · | 10
O=C(O)CCNC1CCCCC1 | 8 | -3 | -1 | 3 | i | · | 4 | -6
